Source: PubChem BioAssay (several laboratories)
WNV NS2B-NS3 inh: blocks West Nile virus NS2B-NS3 protease activity; P06935; WNV NS2B-NS3 protease, fluorogenic substrate Ex360/Em465; hits give low values; z-score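 (tested at a level between 10 and 100 µM)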; 65,000 tested, 0.18% active; AID 577;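 active = z-score at -3 or under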;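 also: score is relative to mean and spread of the compound wells of a plate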
Target sequence (P06935 1371-1501 limits assumed): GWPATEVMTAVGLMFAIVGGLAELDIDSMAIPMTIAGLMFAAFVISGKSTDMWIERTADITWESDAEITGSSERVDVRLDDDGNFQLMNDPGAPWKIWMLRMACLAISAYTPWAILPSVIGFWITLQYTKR
Target sequence (P06935 1502-1679 limits assumed): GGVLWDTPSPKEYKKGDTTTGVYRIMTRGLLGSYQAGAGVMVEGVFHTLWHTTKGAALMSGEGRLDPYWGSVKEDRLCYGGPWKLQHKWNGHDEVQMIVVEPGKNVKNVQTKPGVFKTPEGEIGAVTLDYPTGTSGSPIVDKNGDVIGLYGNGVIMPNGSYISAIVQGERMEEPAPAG
MT1-MMP reporter: MT1-MMP gene expression reporter suppression – cell-based, luciferase reporter, luminescence (AID 618) | MT1-MMP promoter luciferase reporter cells, luminescence | 87,000 tested, 0.62% active | calls from a first round at 10 µM; hits with a dose series show EC50 in µM;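 active = over half of the reporter light lost at 10 µM or EC50 under 50 µM; inactive = the rest and hits that failed the dose series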;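 also: actives suppress MT1-MMP promoter-driven transcription so potencies describe inhibitors; HT1080 fibrosarcoma cells; overnight exposure; toxic or luciferase-blocking compounds were not removed from the actives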
Hsc70 ATP site: small molecules displacing fluorescent ligand from Hsc70 – biochemical, fluorescence polarization, primary screen (AID 568) | Hsc70 fluorescence polarization, probe displacement; higher % means a stronger effect; strong numbers were not always called active | one-dose displacement, % at 20 µM; IC50 in µM for titrated hits | 83,000 tested, under 10 active;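 active = displacement above 50% without optical interference and an IC50 on retest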;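 also: ATPase domain with a fluorescein-tagged ATP probe; 0% = vehicle and 100% = excess ADP; read after one hour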
Starred values were filed as active, the others as inactive; i = inactive; nt = not tested or not shown.

Values run as follows: WNV NS2B-NS3 inh, MT1-MMP reporter, Hsc70 ATP site
- COC(=O)CCSc1cc([N+](=O)[O-])cc2c1c(C1OCCS1)nn2-c1ccccc1 (stereo unspecified)
 : nt, i, -1.1%
- O=C(NCc1ccncc1)C1CCCN(S(=O)(=O)Cc2ccccc2)C1 (stereo unspecified)
 : -1.4, i, 4.3%
- CC(C)N(Cc1nc(-c2ccccc2)no1)C(=O)c1ccc(Br)o1
 : -0.16, i, 0.6%
- Cc1cccc(-c2onc3ccc(C4(C)OCCO4)cc23)c1
 : nt, i, 0.4%
- CCOC(=O)N1CCN(c2c(N3CC=C(c4ccccc4)CC3)c(=O)c2=O)CC1
 : 0.46, i, 0.5%
- Nc1cc2ccccc2oc1=O
 : nt, i, 4.6%
- N=c1n(Cc2ccccc2)c2ccccc2n1CC(O)c1ccco1 (stereo unspecified)
 : -0.57, i, -6.2%
- Cc1nc(N2CCOCC2)c(C#N)c(C)c1Br
 : nt, i, -1.4%
- O=C(CSc1ccc2nnc(-c3ccccc3)n2n1)N1CCCCC1
 : 1.2, i, 4.7%
- Cc1ccc(C2CC(=O)c3cnc(NC(=O)c4ccco4)nc3C2)cc1 (stereo unspecified)
 : -0.6, i, 5.0%
- Cc1nc(NCc2ccccc2)[nH]c(=O)c1CCC(C)C
 : 0.52, i, 6.6%
- Cc1ccc2cc(CN(Cc3ccco3)C(=O)c3cccs3)c(=O)[nH]c2c1
 : -0.37, i, -1.6%
- COCCOC(=O)c1c(C)oc2ccc(OC(=O)COc3c(F)c(F)c(F)c(F)c3F)cc12
 : 0.88, i, 4.1%
- COc1ccc(CNC2CCCCC2)cc1
 : -0.21, i, 3.9%
- Cc1cc(C)nc(NC(=O)NS(=O)(=O)Nc2ccc(Br)cn2)n1
 : -0.82, i, -5.0%
- CCn1c(COc2ccc(Cl)c(C)c2)nnc1SCC(=O)N1CCCC1
 : 0.03, i, -6.8%
- O=C(NC1CCCCC1)C1CCCN(c2nnnn2-c2ccccc2)C1 (stereo unspecified)
 : 1, i, -0.5%
- O=C(NCCc1ccccc1)C1CCN(S(=O)(=O)c2ccc(-n3cnnn3)cc2)CC1
 : -1.2, i, 1.0%
- Cc1ccc(C)c(N(CC(N)=O)S(C)(=O)=O)c1
 : 0.67, i, -3.3%
- Cc1nnc(SCC(=O)Nc2c(Cl)cccc2Cl)[nH]c1=O
 : -0.74, i, 5.0%
- c1ccc(-c2noc(C34CC5CC(CC(C5)C3)C4)n2)nc1
 : -0.48, i, 1.6%
- CCCC(=O)c1c(NC(C)C)cc(C)oc1=O
 : -0.78, i, 0.4%
- COc1ccc(S(=O)(=O)N(Cc2ccc(OC)c(OC)c2)Cc2ccco2)cc1
 : 0.44, i, 0.3%
- CC1(C)CC(=O)c2cnc(NCC3CCCO3)nc2C1 (stereo unspecified)
 : -0.77, i, 2.9%
- Cc1cccc(NC(=S)NC(=O)/C=C/c2ccco2)n1
 : nt, i, -2.1%
- CCCCCCCCOC(=O)c1ccc(N)cc1
 : nt, i, -1.2%
- CCOC(=O)c1c(N)sc2c1CCC1C(=O)N(C3CCCCC3)C(=O)C21 (stereo unspecified)
 : 0.25, i, -1.2%
- C=CCn1c(SCC(=O)c2ccccc2)nnc1-c1cc2ccccc2o1
 : 1.9, i, 1.3%
- CCOC(=O)C(CCOc1cccc(CC)c1)C(=O)OCC
 : 0.09, i, 1.1%
- CS(=O)(=O)N(CC(=O)N1CCCCC1)C1CCCCC1
 : 1.1, i, -4.9%
- CCCn1c(=NC(=O)c2ccncc2)c(C(=O)OCC)cc2c(=O)n3cccc(C)c3nc21
 : 0.46, i, -5.9%
- OC1(c2cccc(C(F)(F)F)c2)CCN(Cc2nnnn2CCc2ccccc2)CC1
 : nt, i, -3.5%
- OCC1(CO)COC2(CCCC2)N1
 : -0.6, i, 3.1%
- O=C(NCCc1cccc(F)c1)[C@@H]1CSC2c3ccccc3C(=O)N21 (stereo partly specified)
 : 1.3, i, 2.1%
- CCCc1nc2c(=O)n(C)c(=O)[nH]c2n1CCC
 : nt, i, 5.4%
- O=C(Oc1c(Cl)cc(Cl)c2ccccc12)N1CCCC1
 : nt, i, 5.1%
- O=C(Nc1nccs1)C1C2/C=C\CCCCC21 (stereo unspecified)
 : 3, i, -0.6%
- O=C(NCc1cccs1)c1cnn2cccnc12
 : 0.69, i, -6.8%
- CCC(=O)Nc1ccc2c(c1)ncn2-c1ccc(OC)cc1
 : nt, i, 3.4%
- N#Cc1ccc(Oc2ccc(C(N)=O)cc2)cc1C#N
 : 1.3, i, -1.8%
- CS(=O)(=O)N1CCC(C(=O)NCc2ccco2)CC1
 : -0.75, i, 1.2%
- O=C(c1cc2ccccc2oc1=O)N(Cc1ccc2c(c1)OCO2)Cc1ccco1
 : -1.3, i, -3.1%
- CCc1nc(N)nc2c1C(=O)CC(C)(C)C2
 : 1.5, i, 7.2%
- CCn1c(C)nc2cc(C(=O)NNS(=O)(=O)c3c(C)c(C)cc(C)c3C)ccc21
 : nt, i, -0.5%
- CCCCCCOC(=O)C(C#N)c1nc2ccccc2nc1N1CCCCC1 (stereo unspecified)
 : 0.09, i, -16%

Some entries already given, reduced to WNV NS2B-NS3 inh and MT1-MMP reporter:
Compound	WNV NS2B-NS3 inh	MT1-MMP reporter
CCC(=O)Nc1ccc2c(c1)ncn2-c1ccc(OC)cc1	nt	i
N#Cc1ccc(Oc2ccc(C(N)=O)cc2)cc1C#N	1.3	i

The listing continues.
Values run as follows: WNV NS2B-NS3 inh, MT1-MMP reporter, Hsc70 ATP site
- Cc1cc(C)cc(NC(=O)NCc2nnc(SCc3ccccc3)n2C)c1
 : 1.2, i, 8.2%
- O=C(Cn1nc(C(F)(F)F)c2c1CCCC2)NCCN1CCOCC1
 : 0.2, i, 2.6%
- Cc1cc(=O)n(C(NC(=O)c2ccccc2)C(=O)c2ccccc2)cn1 (stereo unspecified)
 : nt, i, 6.0%
- N#Cc1c(-c2ccccc2)nc(N2CCCCCC2)[nH]c1=O
 : -0.22, i, -2.1%
- O=C(CSc1nnc2ccccn12)c1ccccc1
 : -0.26, i, 0.4%
- CCn1c(COc2ccc(C)cc2)nnc1SCc1nc2ccccc2[nH]1
 : nt, i, 1.7%
- O=C(c1ccc(COc2c(F)c(F)c(F)c(F)c2F)o1)N1CCN(Cc2ccc3c(c2)OCO3)CC1
 : nt, i, 2.0%
- CN(Cc1ccccc1)C(=O)c1cccc(NC(=O)c2ccco2)c1
 : -0.63, i, 3.2%
- COc1ccc(C(=O)N2CCC(C(=O)Nc3ccc(OC)c(OC)c3)CC2)cc1
 : -0.47, i, -0.7%
- Cc1ccc(NC(=O)CSc2nnc(-c3ccncc3)n2N)cc1C
 : -0.18, i, -8.7%
- COc1ccc(Cn2nnnc2C(c2cc3cc(C)cc(C)c3[nH]c2=O)N2CCOCC2)cc1 (stereo unspecified)
 : 0.69, i, 5.5%
- O=C(CSc1nnnn1C1CC2CCC1C2)Nc1ccnc2ccccc12 (stereo unspecified)
 : -0.74, i, -0.8%
- c1ccc(-c2nnc(CSc3nnc(-c4ccncc4)n3Cc3ccco3)o2)cc1
 : 1.4, i, -6.2%
- O=C(NCCOc1ccccc1)c1n[nH]c(=O)c2ccccc12
 : 0.09, i, 3.0%
- NCCc1nnc(SCc2ccccc2)o1
 : -0.44, i, -3.2%
- CC(=O)NCCOc1c(C)cc(S(N)(=O)=O)cc1C
 : 0.09, i, -0.7%
- Cc1ccc(CNc2ccc3c(c2)ncn3C)cc1
 : -0.07, i, 10%
- O=C(Nc1cc(S(=O)(=O)N2CCOCC2)ccc1O)c1ccco1
 : nt, i, -5.0%
- COc1ccccc1N1CCN(C(=O)c2cc(-c3ccc(Br)cc3)on2)CC1
 : -0.93, i, -1.3%
- CCOc1ccccc1NC(=O)CCC(=O)Nc1ccc2nc(N3CCN(C)CC3)cc(C)c2c1
 : 1.1, i, 0.3%
- Cc1cc(-n2c(C)cc(C(=O)CSc3nc4ccccc4c(=O)n3Cc3ccco3)c2C)no1
 : 0.47, i, -9.3%
- COc1ccc(C(=O)Nc2nc(C)c(C)s2)cc1OC
 : nt, i, 3.6%
- CCOc1ccc(N(CC(=O)OC)S(=O)(=O)c2c(C)noc2C)cc1
 : -1.4, i, 6.2%
- CC(=O)OC(C)(C)C#CCN1CCCC1
 : nt, i, 2.5%
- O=c1[nH]c(CSc2ncc(-c3ccc(F)cc3)n2Cc2ccco2)nc2ccccc12
 : -1.1, i, -3.5%
- CCCn1c(N)c(C(=O)CSc2nnc(Cc3ccccc3)o2)c(=O)n(C)c1=O
 : 0.34, i, 4.8%
- COc1ccc(S(=O)(=O)NCc2ccncc2)cc1OC
 : 1.8, i, 6.5%
- CCOC(=O)CSc1cn2c(n1)CCC2
 : -0.21, i, 4.2%
- O=C(CSc1nnnn1C1CCCCC1)Nc1nc2c(s1)CCCC2
 : 0.06, i, -6.7%
- O=C(CSc1ccccc1)N1CCN(c2ccccc2)CC1
 : 0.27, i, -3.1%
- COCCNC(=O)Cn1nc(C(F)(F)F)c(Br)c1C
 : -0.88, i, -1.6%
- CCCc1nnc(SCC(=O)N2CCCCC2)n1CCCOC
 : nt, i, -0.7%
- N#CCOc1nc(N2CCCC2)nc(N2CCCC2)n1
 : nt, i, 3.9%
- CCOC(=O)C1CCCN(C(=O)c2ccccc2SCCOC)C1 (stereo unspecified)
 : 0.86, i, -4.2%
- CN1Cc2cc(C(=O)c3ccccc3O)cnc2NC1=O
 : nt, i, -1.9%
- CCCCn1nnnc1NCc1ccc(C)s1
 : nt, i, -0.4%
- CCC(C)(C)NC(=O)C(c1cccs1)N(CC1CCCO1)C(=O)Cn1nnc2ccccc21 (stereo unspecified)
 : 0.37, i, -8.7%
- CCOc1ccc(NC(=O)N2CCC(NC(=O)c3ccco3)CC2)cc1
 : 0.54, i, -0.5%
- COc1cccc(NC(=O)C(C#N)Cc2ccncc2)c1 (stereo unspecified)
 : 0.54, i, 2.1%
- CCNC(=O)c1sc(=S)n(-c2ccc(C)cc2)c1N
 : nt, i, 4.3%
- O=C(c1cccnc1)N1CCN(CCCc2ccccc2)CC1
 : -0.07, i, -0.9%
- Nc1nnn(Cc2ccccc2)n1
 : 0.15, i, -5.6%
- CCOC(=O)CNS(=O)(=O)c1cc(-c2n[nH]c(=O)c3ccccc23)ccc1C
 : 0.08, i, 4.1%
- CCOC(=O)c1[nH]cc(-c2ccccc2)c1N1CCOCC1
 : 0.04, i, -6.5%
- Cc1nc(NC(=O)CSc2nnc(C)n2CC2CCCO2)sc1C (stereo unspecified)
 : 0.18, i, -5.8%
- Cc1ccc(SC(C)c2nc(-c3ccccc3)no2)cc1 (stereo unspecified)
 : 0.5, i, 0.8%
- O=S(=O)(Nc1ccc(O)cc1)c1cccc2cccnc12
 : 0.38, i, 6.4%
- CCCCCn1c(CNC(=O)CCC)nc2ccccc21
 : 0.67, i, -1.3%
- O=C(c1cc(-c2cccs2)on1)N1CCCCC1
 : 1, i, 1.9%
- CCN1CCN(c2nc3c(c(=O)[nH]c(=O)n3C)n2CCSc2nc3ccccc3s2)CC1
 : -0.13, i, 1.5%
- CC1(C)Cc2c(sc3c2c(=N)n(Cc2ccco2)c(=O)n3Cc2ccc(F)cc2)CO1
 : 0.67, i, -6.6%
- COC(=O)c1cc(NC(=O)CN2CCC(C(N)=O)(N3CCCCC3)CC2)cc(C(=O)OC)c1
 : 1.1, i, 3.4%
- CCOc1cc(S(=O)(=O)n2c(C)nc3ccccc32)ccc1F
 : 0.15, i, -0.1%
- COC(=O)c1[nH]c(C)c(/C(O)=C2\C(=O)C(=O)N(CCN3CCOCC3)C2c2ccccc2OC)c1C (stereo unspecified)
 : -1, i, -1.2%
- O=C(Oc1cccc(-n2cnnn2)c1)C1CCCCC1
 : -0.55, i, -2.7%
- CC1CCN(C(=O)CSc2nncn2-c2ccccn2)CC1
 : -0.53, i, 4.7%
- O=C(CSc1nc2ccccc2o1)Nc1nc2ccccc2s1
 : -1.1, i, -27%
- COc1ccc(NC(=O)CSc2nc(C)cs2)cc1OC
 : nt, i, -0.5%
- Cc1ccc(S(=O)(=O)N(C)Cc2cc3ccccc3[nH]c2=O)cc1
 : -0.38, i, -2.2%
- Cc1cccc(NC(=O)c2c(F)c(F)c(F)c(F)c2F)c1
 : nt, i, 0.3%

Continued:
Values run as follows: WNV NS2B-NS3 inh, MT1-MMP reporter, Hsc70 ATP site
- Cc1ccc(C2C(C(=O)c3sc(-c4ccccc4)nc3C)=C(O)C(=O)N2CCN(C)C)o1 (stereo unspecified)
 : -0.79, i, -4.1%
- CCOc1cc(C#N)c(NC(=O)c2ccco2)cc1OCC
 : -0.63, i, -1.6%
- Cc1cc2nc(-c3ccc(SCC(=O)N4CCOCC4)nc3)[nH]c2cc1C
 : -0.45, i, 5.3%
- Cc1ccc(C2CC(C(F)(F)F)n3nc(C(=O)NCc4c(C)nn(C)c4C)c(Cl)c3N2)cc1 (stereo unspecified)
 : -0.84, i, -4.1%
- CCCN1CCC(NC(=O)Nc2ccc(F)cc2F)CC1
 : -0.27, i, 6.7%
- CC(C)(C)n1ncc2c(=O)n(CC(=O)N3CCCCCC3)cnc21
 : 0.03, i, -0.3%
- Oc1c(CN2CCOCC2)cc(-c2ccccc2)cc1CN1CCOCC1
 : -1, i, -1.3%
- Cc1ccc(S(=O)(=O)N2CCN(S(=O)(=O)c3ccc(C)cc3)C3OCCOC32)cc1 (stereo unspecified)
 : -1.2, i, -2.4%

Not all compounds are listed; count on the stated rates, not on these rows.
